Prx2 Sm inh – blocks S. mansoni peroxiredoxin 2 enzymatic activity | 0.07% of 65,000 active | S. mansoni Prx2 activity coupled to TGR/GSH (TGR is thioredoxin glutathione reductase), NADPH fluorescence loss, qHTS; some inactives read as strong as hits | AID 448 | Potency, µM; active means full or partial inhibition curve with a strong effect at the top dose; inconclusive means weaker partial or single-point curve; inactive means no accepted curve; note: series up to 57 µM; many of its hits are not listed in these tables
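Coupled assay in which S. mansoni TGR passes NADPH reducing equivalents via glutathione to Prx2, which reduces H2O2. Compounds were preincubated 15 min at room temperature with 25 nM TGR/50 nM Prx2 mix. Kinetic NADPH fluorescence loss (ex 365/em 450 nm) was monitored.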
Anthrax LT inh – inhibitors of anthrax lethal toxin internalization | Potency, µM (series often up to 40 µM), for inactives: at the highest dose activity change, negative = inhibition, most hits filed as inhibitors | AID 912 | 0.67% of 70,000 active | Cells, anthrax lethal toxin internalization, FRET ratio (460/530); active = well fitted falling ratio curve with the 530 nm signal flat; inconclusive = other ratio curves, or a change in one channel alone; inactive = flat curves in the ratio and both channels; the % refers to the ratio; note: % is set by controls: 0 for no effect and ±100 for the full control effect; nearly all actives have a fitted effect of over 50% in size; tested in ME-180 cells; beta-lactamase reporter
Numbers without * were called inactive; ? = inconclusive; / = not tested or not shown; & = joins results of further samples; [ ] = another dose, or the depositor's remark. Potency is the fitted concentration of half-maximal effect. These rows are one share of the data; rates above refer to the full screens.

SMILES	Prx2 Sm inh	Anthrax LT inh
COCCNC(=O)C(c1ccc(C)o1)N(C(=O)c1snc(C(N)=O)c1N)c1ccc(C)cc1 (configuration not stated)	>57	6.1%
Cc1ccc2[nH]c(=O)c3cc(C(=O)N4CCN(C(=O)c5ccco5)CC4)sc3c2c1	>57	8.4%
O=C(Cn1cnc2sc(-c3ccccc3)cc2c1=O)N1CCOCC1	>57	1.0%
COc1nc2cc(C)ccc2cc1-c1noc(-c2cccnc2)n1	>57	-5.2%
Cn1c(-c2ccc(Cl)cc2)cnc1N	>57	-6.3%
O=C(CSc1nnc2c(Cl)cc(Cl)cn12)N1CCN(S(=O)(=O)c2ccccc2)CC1	>57	?
O=c1[nH]c(=O)n([C@@H]2C[C@H](O)[C@H](CO)O2)cc1C(F)(F)F	>57	-9.4%[3.58 µM]
Cc1ccc(S(=O)(=O)N2CCC(C(=O)OC(C)C(=O)NCc3ccc4c(c3)OCO4)CC2)cc1 (configuration not stated)	>57	-15.0%
CCC(C)NC(=O)c1c(N)n(Cc2ccc3c(c2)OCO3)c2nc3ccccc3nc12 (configuration not stated)	>57	?
CCCCCCC(=O)O	/	7.6%
Cc1cc(NCCCn2ccnc2)n2c(nc3ccccc32)c1C#N	>57	4.2%
COc1ccc(N2C(=O)C3CCCN3C2c2ccccc2OC)cc1 (configuration not stated)	>57	5.6%
CC(=O)NC1(c2nnnn2CCOC(=O)Nc2ccc(Cl)cc2)CCCCC1	>57	-1.0%
COc1cccc(C2C3=C(N=C4SCC(=O)N42)c2ccccc2CC3)c1OC (configuration not stated)	/	?
Cc1ccc(-n2[nH]c(C)c(/C=N/n3c(C)nc4ccccc4c3=O)c2=O)cc1	>57	-3.7%
CCNC(=O)CC1C(=O)N(c2ccc(F)cc2)C(=O)N1CCC(C)C (configuration not stated)	>57	2.4%
CN(C)CCCNC(=O)C1CCNCC1	/	18.5%
CC(C)CNC(=O)C1C2C=CC(C2)C1C(=O)O (configuration not stated)	>57	-5.0%
Cc1ccc(S(=O)(=O)NC2=NCN(C3CCCCC3)CN2)cc1	>57	0.0%
CCCn1c(=O)c2ccccc2n2c(SCC(=O)c3ccc(F)cc3)nnc12	>57	-12.5%
CCOC(=O)CC(=O)Nc1ccc(Br)cc1C(=O)O	/	-2.9%
C=CC[C@@H]1C=C[C@@H](O/N=C2/[C@H]3O[C@@H]3[C@@H](O)[C@H]3[C@H]2CCn2c(=O)n(-c4ccccc4)c(=O)n23)[C@@H](CO)O1	/	13.7%[8 µM]
O=C(CC1(O)C(=O)N(Cc2ccc3c(c2)OCO3)c2ccccc21)c1ccccc1 (configuration not stated)	>57	-23.3%
O=C(O)C1CCCN1C(=O)Oc1ccccc1 (configuration not stated)	>57	-10.6%
CC(C)(C)C(=O)Nc1c2c(nc3c1CCC3)CCCC2	>57	1.5%
O=C1CN(S(=O)(=O)c2ccc(F)cc2)CC(=O)N1CCc1ccccc1	>57	-25.2%
CCOCCCNS(=O)(=O)c1ccc2c(c1)OCCO2	>57	-8.9%
CCOC(=O)c1cccc(NC(=O)CN2CCN(c3ccc(OC)cc3)CC2)c1	>57	6.3%
COc1ccccc1Cc1noc(-c2cc(Cl)ccc2OC)n1	>57	-8.1%
COc1ccc(C2NCCc3cc(OC)c(OC)cc32)cc1OC (configuration not stated)	>57	14.6%
Cc1noc(C)c1C(=O)N1CCC[C@@]2(CCN(c3ccccc3)C2)C1	>57	?
COc1cc2nc(N3CCNCC3)nc(N)c2cc1OC	>57	/
O=C(O)[C@@H]1[C@@H](C(=O)NCc2ccncc2)[C@@H]2C=C[C@@H]1O2	>57	?
CCc1ccccc1N(C(=O)Cn1nnc2ccccc21)C(C(=O)NCCOC)c1ccco1 (configuration not stated)	>57	8.1%
COc1ccc(C(=O)Nc2nncs2)c(OC)c1	>57	-2.7%
Cc1cc(NC(=O)COn2nnc3ccccc32)no1	>57	6.6%
CC1(c2ccc(OC(F)F)cc2)NC(=O)N(CC(=O)Nc2ccc3c(c2)OCO3)C1=O (configuration not stated)	>57	?
CCCc1[nH]n(-c2nc3ccccc3s2)c(=O)c1C=NCC1CCCO1 (configuration not stated)	>57	-4.2%
Cc1cc(C(=O)CN2C(=O)CCC2=O)c(C)n1Cc1ccccc1	>57	-0.6%
CCCC1C(c2ccco2)NC(c2ccco2)CC1(C)O (configuration not stated)	>57	10µM*
CCOc1cccc(=O)c2c(C)n(Cc3ccco3)c(C)c12	/	?
C=CCOc1ccc(/C=N/n2cncn2)cc1OC	>57	-11.3%
O=C(c1ccc2ccccc2n1)N1CCN(c2ccccc2)CC1	>57	0.7%
S=c1nc2ccccc2c2nc(-c3ccccc3)[nH]n12	>57	11.3%
COC(=O)C/C=C\[C@@H](C)[C@@H](/C=N\OC[C@@H](O)[C@H]1O[C@H]2OC(C)(C)O[C@H]2[C@@H]1O)OC	/	-0.3%[8 µM]

Looked up one by one from the entries so far (7):
SMILES	Prx2 Sm inh	Anthrax LT inh
COC(=O)C/C=C\[C@@H](C)[C@@H](/C=N\OC[C@@H](O)[C@H]1O[C@H]2OC(C)(C)O[C@H]2[C@@H]1O)OC	/	-0.3%[8 µM]
CC1(c2ccc(OC(F)F)cc2)NC(=O)N(CC(=O)Nc2ccc3c(c2)OCO3)C1=O (configuration not stated)	>57	?
O=C(O)[C@@H]1[C@@H](C(=O)NCc2ccncc2)[C@@H]2C=C[C@@H]1O2	>57	?
CCc1ccccc1N(C(=O)Cn1nnc2ccccc21)C(C(=O)NCCOC)c1ccco1 (configuration not stated)	>57	8.1%
C=CCOc1ccc(/C=N/n2cncn2)cc1OC	>57	-11.3%
CCCc1[nH]n(-c2nc3ccccc3s2)c(=O)c1C=NCC1CCCO1 (configuration not stated)	>57	-4.2%
O=C(c1ccc2ccccc2n1)N1CCN(c2ccccc2)CC1	>57	0.7%

New compounds follow.
SMILES	Prx2 Sm inh	Anthrax LT inh
Cc1ccc2nc3ccc(N4CCN(C)CC4)nn3c(=O)c2c1	>57	11.7%
CC(=O)NCCNc1ncnc2ccc(-c3ccccc3C)cc12	>57	6.3%
O=C1CCCC2=C1C(c1ccc(Br)cc1)c1c([nH]c(=S)[nH]c1=O)N2 (configuration not stated)	>57	-2.7%
CCNc1nc(N)c(C(=O)c2ccc(Cl)s2)s1	>57	-23.5%
O=C(CCCN1CCC2(CC1)C(=O)N(Cc1cccc(F)c1)CN2c1ccccc1)c1ccc(F)cc1	>57	?
CCN1CCCC1CNC(=O)c1cn(CC)c2ccc(S(=O)(=O)N3CCCCCC3)cc2c1=O (configuration not stated)	>57	7.1%
Cc1cc(C)c2c(c1)NC(=O)C2(O)CC(=O)c1cccs1 (configuration not stated)	>57	2.6%
COc1ccc(C(=O)NCc2nnc(SCC(=O)N3CCC(C)CC3)o2)cc1OC	>57	4.7%
CCOC(=O)C1C(=O)N(C(=O)c2cncc(Br)c2)CC1c1ccccc1 (configuration not stated)	/	-12.8%
C=CCOc1ccc(/C=C/C(C)=N\O)cc1	/	-21.2%
O=S(=O)(O)c1nnc2sc3ccccc3n12	>57	2.9%
COc1cccc(Nc2ncc3nc(-c4ccccc4)c(=O)n(C4CC4)c3n2)c1	>57	?
Cc1cc(C(=O)Nc2ccccc2C#N)n(-c2ccccc2)n1	>57	-11.2%
O=c1c(-c2cc(F)cc(F)c2)nc2cnc(N3CCOCC3)nc2n1Cc1ccc(F)cc1	>57	?
Nc1nnc(CSCc2ccccc2)s1	>57	-17.2%
CC(C)CN(C(=O)CSc1nnc2c(Cl)cc(C(F)(F)F)cn12)C1CCS(=O)(=O)C1 (configuration not stated)	>57	?
CC(C)[C@@H]1CN[C@H](C(=O)O)[C@@H]1CC(=O)O	>57	-12.6%
COc1ccccc1-n1c(O)c(C=Nc2c(C)n(C)n(-c3ccccc3)c2=O)c(=O)[nH]c1=O	>57	?
Cc1cccc(OCCc2nnc(N)s2)c1C	>57	4.0%
Cc1nc(NCCN2CCOCC2)c2oc3ccccc3c2n1	>57	?
CN(C)Cc1c(O)ccc2occ(C(O)c3ccccc3)c12 (configuration not stated)	/	-1.8%
O=c1c(-c2ccccc2)c(O)c2cccc3c2n1CCC3	>57	11.8%
CCOc1ccc(OCc2cccc(C(=O)O)c2)cc1	>57	-4.2%
COC(=O)C1=C(C)Nc2ncnn2C1c1ccc(OC(=O)c2ccccc2)cc1 (configuration not stated)	>57	0.0%
CCCCCCCCCCCC(=O)O[C@H](CC(=O)O)C[N+](C)(C)C	>25.6	-25.3%
C=CCC(NCCCO)c1cccc(OC)c1OC (configuration not stated)	>57	-3.8%
Cc1nc2ncnn2c(C)c1CCC(=O)N1CCOCC1	>57	-18.3%
CC(C)=NO[C@@H](C)c1cn([C@H](CO)Cc2ccccc2)nn1	/	?
COc1ccc(N2C(=O)C3CCCN3C2c2ccc(C)o2)cc1Cl (configuration not stated)	>57	-4.6%
CCCn1nnnc1SCC(=O)c1ccc(NC(C)=O)cc1	>57	-8.5%
O=C(N[C@@H](c1ccccc1)[C@@H]1C[C@H]1C(=O)O)OCc1ccccc1	>57	16.0%
O=C(O)c1ccccc1SCc1ccc2c(c1)OCO2	>57	11.9%
CN1/C(=C\P(=O)(N(C)C)N(C)C)C(C)(C)c2ccccc21	>57	10.0%
O=C(O)C1C2C=CC(O2)C1C(=O)Nc1ccc2c(c1)OCCO2 (configuration not stated)	/	8.2%
Cc1ccc(C)c(S(=O)(=O)N2CC(=O)Nc3ccccc32)c1	>57	-3.1%
O=C(CN1CCN(c2ccccc2)CC1)Nc1c(C(=O)C2CC2)oc2ccccc12	>57	-13.0%
CCOc1nc(-c2ccc(OC)cc2)ccc1-c1noc(C)n1	>57	-10.0%
Cc1c(Nc2ncnc3c2cnn3-c2ccccc2)c(=O)n(-c2ccccc2)n1C	>57	-0.2%
Nc1nc2ccc(C(=O)NC3CCCCC3)cc2s1	>57	-3.1%
O=C(C1CCCN(S(=O)(=O)c2cnc[nH]2)C1)N1CCN(Cc2ccccc2)CC1 (configuration not stated)	>57	7.2%
CCOC(=O)N1CCN(C(=O)c2cccn3c(=O)c4sccc4nc23)CC1	>57	6.9%
CC1Cc2ccccc2N1C(=O)CSc1nc2ccccc2o1 (configuration not stated)	>57	?
CCOC(=O)Cc1c(C)c2c(C)nn(-c3ccccc3)c2oc1=O	>57	-15.9%
Cn1c(=O)cc(OCCCC(=O)N2CCN(c3ccccn3)CC2)c2ccccc21	>57	5.9%
CCCn1c(=O)c2c(ncn2C)n(CCC)c1=O	>57	6.2%
COc1ccc(N2C(=O)C(Cl)=C(N(CCO)Cc3ccccc3)C2=O)cc1	>57	-7.1%
CCOc1ccc(C(C)(C)C)cc1S(=O)(=O)N1CC(C)OC(C)C1 (configuration not stated)	>57	-12.7%
O=C(COc1ccc(S(=O)(=O)NC2CCCCC2)cc1)NCC1CCCO1 (configuration not stated)	>57	25.0%
CC(C)OCCCNC(=O)c1ccc(NS(C)(=O)=O)cc1	>57	-4.4%
COc1cc(SC)ccc1C(=O)Nc1ccc(S(=O)(=O)N2CCCC2)cc1	/	25.3%
COc1ccc(-c2cc3nc(C4CCN(C(=O)OC(C)(C)C)CC4)c(C(=O)O)cn3n2)cc1	>57	/
CC(C)c1ccc2c(c1)C(=O)NC(C)(C)C2	>57	-10.6%
c1ccc(CNc2ncnc3c2cnn3-c2ccccc2)cc1	>57	?
Nc1nc(CSc2nc3ccccc3s2)nc(N2CCCCC2)n1	>57	?
C=C(C)COc1ccc2c(C)c(C)c(=O)oc2c1OCC(=C)C	>57	-6.2%
O=C(NC1c2ccccc2-c2ccccc21)N1CCCCC1	>57	-17.2%
O=C(Cn1c(=O)oc2ccccc21)N1CCN(c2ccc(N3CCOCC3)nn2)CC1	>57	1.9%
O=C(Nc1ccc2c(c1)nc1n2CCCCC1)c1cc(S(=O)(=O)N2CCOCC2)ccc1Cl	>57	-7.9%
CC1(C(=O)NC2CCCC2)CCC(=O)N1Cc1ccc2c(c1)OCO2 (configuration not stated)	>57	-14.0%
CC1=C(C(=O)OCc2ccc3c(c2)OCO3)C(c2ccc(Cl)cc2)NC(=O)N1 (configuration not stated)	/	-29.1%

The listing continues.
SMILES	Prx2 Sm inh	Anthrax LT inh
O=c1[nH]c(=O)n(CCC2=CCCCC2)c(O)c1C=NCc1cccnc1	>57	5.6%
Cc1cccc(OCCC(=O)OCC(=O)N2CCc3ccccc32)c1	>57	1.0%
COc1ccc(Cl)cc1C(=O)Nc1ccccc1N1CCN(C(=O)C(C)C)CC1	>57	?
C/C=C/OC(=O)NC(c1ccccc1)[C@@]1(C(=O)OC)CCCC1=O (some centres not stated)	/	-5.2%[8 µM]
N#CC(C#N)=c1ccc2c(c1)N1C3=C(CCCC3)CC3CCCCC31N=2 (configuration not stated)	>57	-8.2%
Cc1ccc(CNC(=O)C2CCN(S(=O)(=O)c3c(C)noc3C)CC2)cc1	>57	-2.3%
COCC(=O)N1CCC2(CC1)CN(c1ccccn1)C2	>57	-4.6%
Cc1cc2c(C(C)C)c(O)c(O)c(C=O)c2c(O)c1-c1c(C)cc2c(C(C)C)c(O)c(O)c(C=O)c2c1O	>57&>25.6	?

Screening results deposited in PubChem by National Center for Advancing Translational Sciences (NCATS).
